Screens from PubChem BioAssay.
Rango dissoc inh: qHTS Assay for Inhibitors of RanGTP induced Rango (Ran-regulated importin-beta cargo) - Importin beta complex dissociation; Biochemical FRET Rango-importin beta, RanGTP-induced dissociation; Potency, µM (series often up to 46.1 µM), inactives show at the highest dose activity change, negative = inhibition; hit rate 0.071% among 340,000; Snurportin-1 (Homo sapiens) + GTP-binding nuclear protein Ran (Homo sapiens) + Importin …; active means falling FRET ratio curve, often poorly fitted, with flat reads before Ran was added; inconclusive means other falling curves, or compound fluorescence or quenching; inactive means flat or rising ratio curve;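 further: potency means the concentration at half of the fitted maximal effect; % of control where 0% means no effect; nearly all actives have a fitted effect of over 45% in size; -100% = wells without RanGTP and RCC1; the record marks most hits as doubtful in a second field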
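Rango FRET biosensor (snurportin-1 IBB flanked by N-terminal EYFP and C-terminal CFP10) at 0.1 uM, with 0.25 uM importin beta in PBS, 1mM DTT, 0.02% Tween-20, 0.1% BSA. 0.6 uM Ran, 2mM GTP and 0.2 uM RCC1 were then added for 45 min at room temperature. Inhibition read as loss of FRET rise.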
Rango complex inh: qHTS Assay for Inhibitors of Rango (Ran-regulated importin-beta cargo) - Importin beta complex formation | Rango CFP/YFP FRET sensor + importin beta, 45 min | AID 540263, 2011 | hit rate 0.031% among 340,000 | Importin subunit beta-1 (Homo sapiens), Q14974 | Potency, µM (doses to about 92.2 µM), for the others: at the highest dose inhibition of complex formation; active = rising FRET ratio curve, often small or poorly fitted; inconclusive = mostly compound fluorescence or quenching in the first reads; inactive = flat curves in all reads;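 further: potency means the concentration at half of the fitted maximal effect; 0% = DMSO wells and 100% = buffer wells lacking importin beta; nearly all actives have a fitted effect of over 15% in size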
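Inhibition scored from the CFP 486 nm/YFP 530 nm FRET ratio 45 min after adding 0.125 microM importin beta to 50 nM Rango biosensor preincubated 5 min with compound (room temperature, PBS with DTT, Tween-20, BSA). No-importin wells as positive control.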
miR-21 reporter: qHTS Assay for Modulators of miRNAs and/orActivators of miR-21 | 340,000 tested, under 10 active | Potency, µM (highest dose often 38.3 µM), inactives show top-dose reporter change, positive = more light | HeLa miR-21 FLuc reporter, luciferase, 48 h | AID 2288, 2010; active = well fitted rising curve with a large enough effect; inconclusive = small, poorly fitted or top-dose-only effect; inactive = no such curve, though single readings can be large or run the other way;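 further: % of control where 0% means no effect; miR-21 action dims this reporter so a rising signal means less miR-21 action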
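Luminescence from a firefly luciferase reporter carrying a miR-21 binding site downstream, stably expressed under a CMV promoter in HeLa cells that make miR-21 endogenously, reports miRNA modulation after 48 h compound exposure up to approximately 40uM final.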
GLA inh pH 4.5: qHTS Assay for Inhibitors of Human alpha-Galactosidase at pH 4.5; Alpha-galactosidase A (Homo sapiens), P06280; purified enzyme, 4-MU-alpha-Gal fluorescence, pH 4.5; activity change, negative = inhibition, % at 105 µM; 230,000 tested, under 10 active; AID 1467, 2008; inconclusive = small, poorly fitted or top-dose-only inhibition, or a rising curve; inactive = flat fitted curve, though single readings scatter; no compound was filed as active;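 further: 0% = full activity with enzyme and -100% = basal without enzyme; dose as in the result columns while the protocol names 77 µM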
Target sequence (P06280 whole entry, looked up): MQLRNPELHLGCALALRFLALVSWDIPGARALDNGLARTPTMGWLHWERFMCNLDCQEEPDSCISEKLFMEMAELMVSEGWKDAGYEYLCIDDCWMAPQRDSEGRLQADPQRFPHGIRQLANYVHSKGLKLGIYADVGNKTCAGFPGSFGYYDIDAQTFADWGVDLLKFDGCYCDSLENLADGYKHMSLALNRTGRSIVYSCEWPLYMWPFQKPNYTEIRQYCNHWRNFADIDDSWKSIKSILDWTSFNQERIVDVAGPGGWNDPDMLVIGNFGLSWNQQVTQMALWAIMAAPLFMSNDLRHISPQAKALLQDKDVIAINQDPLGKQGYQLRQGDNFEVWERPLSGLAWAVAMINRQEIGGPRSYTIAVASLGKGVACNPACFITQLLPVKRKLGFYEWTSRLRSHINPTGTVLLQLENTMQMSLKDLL
Active calls of the source: *; ? = inconclusive; · = no result given. A portion of the library (hit frequency here may not be typical).

SMILES	Rango dissoc inh	Rango complex inh	miR-21 reporter	GLA inh pH 4.5
CC(=O)OCC(=O)Nc1ccccc1OC(F)F	0%	-2.6%	2%	5
S=C(Nc1ccc2c(c1)OCCO2)Nc1ccccc1Cl	15%	3.0%	-48%	·
COc1cc(OC)c(C(=O)OCC(=O)N2CC(=O)Nc3ccccc32)cc1OC	2%	0.4%	-7%	-6
Cc1ccc(NC(=O)CSc2nnc(NC(=O)C3CC3)s2)cc1	-1%	-0.3%	-1%	·
CC(C)CC(=O)N1CCN(Cc2cccc(F)c2)CC1	18%	-3.0%	2%	8
CCCOc1ccc(Cc2c(COCC)[nH]c(=S)[nH]c2=O)cc1	16%	-0.5%	-7%	-3
Clc1ccc(CSc2nnc(Cn3cnc4ccccc43)o2)cc1	1%	3.9%	19%	-8
CCOC(=O)C1(Cc2ccccc2C)CCCN(C(=O)c2ccccn2)C1 (stereo unspecified)	20%	-0.6%	-26%	-4
COc1ccccc1CC(=O)Nc1sc2c(c1C(N)=O)CCCC2	-6%	1.6%	-11%	·
COc1ccccc1N1CCN(c2ncc(C(=O)N3CCN(c4cccc(Cl)c4)CC3)c3ccccc23)CC1	-8%	-1.3%	-4%	-8

Exported with values under each structure: four of the compounds above.
Values in the order: Rango dissoc inh, Rango complex inh, miR-21 reporter, GLA inh pH 4.5
COc1cc(OC)c(C(=O)OCC(=O)N2CC(=O)Nc3ccccc32)cc1OC
  2%, 0.4%, -7%, -6
Cc1ccc(NC(=O)CSc2nnc(NC(=O)C3CC3)s2)cc1
  -1%, -0.3%, -1%, ·
CC(C)CC(=O)N1CCN(Cc2cccc(F)c2)CC1
  18%, -3.0%, 2%, 8
CCCOc1ccc(Cc2c(COCC)[nH]c(=S)[nH]c2=O)cc1
  16%, -0.5%, -7%, -3

The results go on.
SMILES	Rango dissoc inh	Rango complex inh	miR-21 reporter	GLA inh pH 4.5
COc1ccc(CCn2c(O)cc3nn(-c4nc5ccccc5s4)c(=O)c-3c2C)cc1	-15%	?	-7%	-20
Cc1cccc(NC(=S)N2CCN(C(=O)C3CCCO3)CC2)c1 (stereo unspecified)	0%	-2.5%	-4%	-6
Cc1ccc(/C=C2\SC(=S)N(/N=C/c3cc([N+](=O)[O-])ccc3O)C2=O)o1	-9%	-3.6%	-9%	-12
Cc1cc2cc(CNC(=O)C3CCCC3)ccc2n1C	-30%	?	6%	5
CCCOCC1CC(CCc2nc(=S)[nH][nH]2)C(=O)O1 (stereo unspecified)	2%	-3.3%	-5%	3
COc1cccc(COC(=O)c2cc(=O)[nH]c3ccc(S(=O)(=O)N4CCOCC4)cc23)c1OC	0%	-0.5%	·	·
Cc1onc(-c2ccccc2)c1C(=O)NCC1COc2ccccc2O1 (stereo unspecified)	7%	-2.5%	1%	3
O=C(NN=C1CCC(c2ccccc2)CC1)c1ccccc1-n1cccc1 (stereo unspecified)	0%	4.5%	-1%	1
COc1cc2c(cc1OC)CN(Cc1ccc(F)cc1)CC2	-12%	-3.8%	-4%	·
O=C1Nc2ccccc2N(O)N1c1ccc(S(=O)(=O)Nc2ccccn2)cc1	2%	0.6%	-2%	-3
Cc1ccc(-c2noc(CCC(=O)Nc3cccc(C#N)c3)n2)cc1	4%	1.5%	-1%	-16
COC(=O)C1=C(COc2ccccc2)NC(=O)NC1c1ccc2ccccc2c1 (stereo unspecified)	0%	0.6%	·	·
Cc1ccc(-c2csc(NC(=O)CCNC(=O)c3ccc(Cl)cc3)n2)cc1	-9%	-0.9%	0%	12
COCCn1c(=NC(=O)c2sc3ccccc3c2Cl)sc2cc(S(N)(=O)=O)ccc21	13%	3.0%	-2%	13
CS(=O)(=O)N(Cc1ccccc1Cl)c1ccc(C(=O)N2CCCC2)cc1	1%	5.7%	-5%	·
O=C(c1ccc(Cl)cc1)N1CCOc2ccccc21	0%	-2.6%	-1%	·
OCCN(CCO)c1ccc(C(c2ccccc2Cl)c2ccc(N(CCO)CCO)cc2Cl)c(Cl)c1	-16%	?	16%	-10
CN1c2ccccc2Oc2nnc(N3CCN(Cc4ccccc4)CC3)cc21	4%	-1.0%	-55%	22
Cc1ccc(S(=O)(=O)CC(=O)Nc2ccc3nc(C)sc3c2)cc1	-2%	-1.1%	-2%	·
O=C(CNS(=O)(=O)c1ccc(Cl)cc1)N1CCN(c2ccc(F)cc2)CC1	12%	-4.3%	·	·
C=CCn1c(O)c(N=Nc2ccccc2C)c2ccccc21	-17%	-0.2%	1%	-4
Nc1cccc2c1C(=O)N(C(=O)/C=C/c1ccc(F)cc1)C2=O	?	?	21%	1
Cc1nc(SCC(=O)N(C)C2CCS(=O)(=O)C2)c(C#N)c(C)c1C (stereo unspecified)	0%	-3.5%	·	·
COc1ccc(NC2c3ncccc3C(=O)N2Cc2ccccc2)c(OC)c1 (stereo unspecified)	13%	11%	-16%	5
O=C(COC(=O)c1cc(-c2ccccc2)nc2ccccc12)NC1CC1	4%	-4.0%	·	·
O=C(NCc1cccc(Cl)c1)c1ccc(-c2csnn2)cc1	0%	0.1%	0%	1
CC(C)(C)c1cc(C(F)(F)F)n2ncc(-c3ccccc3)c2n1	2%	-0.4%	-9%	-5
CCOc1ccccc1C(=O)N(C)Cc1cc2ccccc2[nH]c1=O	-9%	1.5%	-6%	3
O=C(Nc1csc(Cc2c(Cl)cccc2Cl)n1)NN1CCOCC1	18%	-3.1%	-9%	·
O=C(COC(=O)[C@H](Cc1c[nH]c2ccccc12)NC(=O)c1ccc(Cl)cc1)Nc1ccc2c(c1)OCO2	1%	-3.5%	-3%	-6
O=C(c1cc2ccccc2oc1=O)N(Cc1cccs1)CC1CCCO1 (stereo unspecified)	-15%	0.9%	-6%	10
Cc1nn(C)c(Oc2ccccc2)c1CCNC(=O)CC(C)C	1%	5.8%	4%	-3
COC(=O)CN1C(=O)C(O)=C(C(C)=O)C1c1ccc([N+](=O)[O-])cc1 (stereo unspecified)	1%	0.2%	-4%	-4
CC(C)NC(=O)NC(=O)COC(=O)c1cccc(S(=O)(=O)N2CCCCC2)c1	6%	5.4%	1%	-8
Cc1ccc(OCCC(=O)Nc2ccc(C)c(S(=O)(=O)N3CCOCC3)c2)cc1	17%	-1.9%	·	·
Oc1ccc(C=Nc2ccc3ncccc3c2)c(O)c1	·	·	-10%	3
O=C(OCCC12CC3CC(CC(C3)C1)C2)c1ccc(NCc2cc(O)ccc2O)cc1	-14%	1.7%	·	·
CC(=O)NCCOc1ccc2oc3ccccc3c2c1	-2%	-2.1%	-47%	4
O=C(CSc1ccc2c(c1)OCCO2)Nc1ncccc1O	20%	-0.2%	·	·
O=C(O)C(=Cc1cccc([N+](=O)[O-])c1)c1ccc(Cl)cc1	-2%	-2.4%	·	·
COc1ccc(OCCOc2ccc(C)nc2[N+](=O)[O-])cc1	3%	-3.9%	-80%	-10
O=C(NNS(=O)(=O)c1ccc2ccccc2c1)c1cc(-c2ccccn2)nc2ccccc12	-9%	-3.9%	1%	-2
O=C(Nc1cccc(C(=O)N2CCCC2)c1)C1CCC1	-4%	1.0%	·	·
O=C(O)c1cc(-c2cccs2)nn1-c1ccc(F)cc1	25%	6.0%	-5%	-3
COc1ccc(NC(=O)CSc2nc(N)c(NC(=O)c3ccccc3F)c(=O)[nH]2)cc1	3%	0.2%	1%	·
O=C(NN1C(=O)/C(=C/c2ccc(O)cc2)SC1=S)c1cccc(O)c1	?	?	-8%	·
Cc1ccc(CN2C(=O)C(C)(C)Oc3ccc(C(=O)N4CCCCC4)cc32)cc1	-6%	0.0%	3%	4
Cc1c(C=O)c2ccccn2c1C(=O)c1ccc(F)cc1	1%	-2.7%	-5%	·
Cc1ccc(NC(=S)Nc2ccc(S(=O)(=O)Nc3ncccn3)cc2)c(C)c1	3%	-5.9%	0%	-4
CC(=O)c1c(C)[nH]c(C(=O)CN2C(=O)NC(C)(c3ccc(C)cc3)C2=O)c1C (stereo unspecified)	-5%	0.2%	2%	-9

(list continues)
SMILES	Rango dissoc inh	Rango complex inh	miR-21 reporter	GLA inh pH 4.5
C/C(=N/OCc1ccc(Br)cc1)c1ccccn1	10%	-5.2%	-55%	2
c1ccc(-c2noc(C3CCC3)n2)nc1	2%	-2.9%	-29%	-3
Cc1ccnc(NC(=O)c2cc(-c3ccc(Cl)s3)nc3ccccc23)c1	-13%	?	·	·
Cc1cccc2nc(-c3ccco3)c(Nc3ccccc3)n12	0%	?	20%	-10
CCN(CC(=O)Nc1ccccc1OC)C(=O)/C=C/c1cccs1	-7%	4.1%	·	·
CCN1CCSc2ccc(C(=O)NCc3ccccc3C)cc21	7%	-0.8%	0%	·
N#CC(C#N)=C/C(C#N)=C(/N)N1CCN(c2ccc(Cl)cc2)CC1	?	?	-11%	-1
O=C(N/C(=C\c1ccccc1)C(=O)N1CCN(CCO)CC1)c1ccccc1	2%	-3.9%	-3%	-16
CCC(C)NC(=O)CN(c1cc(C)ccc1OC)S(C)(=O)=O (stereo unspecified)	6%	11%	1%	1
CCOc1ccc(N(C)S(=O)(=O)c2ccc(C)c(C(=O)Nc3nnc(C4CC4)s3)c2)cc1	11%	-1.4%	·	·
CC1Sc2ccc(S(=O)(=O)N3CCC(C(=O)N4CCN(C)CC4)CC3)cc2NC1=O (stereo unspecified)	-4%	1.7%	0%	·
CCCOc1ccc(C2=NNC(c3cccs3)=Nc3ccc(OC)cc32)cc1	0%	3.9%	-51%	-16
COC(=O)C1C(c2ccccc2)C(C(=O)N2CCOCC2)C1c1ccccc1 (stereo unspecified)	1%	-0.5%	-11%	-10
Cc1ccc(C(=O)Nc2cccc(C(F)(F)F)c2)cc1Nc1ncnc2nc[nH]c12	·	·	29%	-1
Oc1c(/C=N/Nc2cccc3cccnc23)ccc2ccccc12	?	?	-76%	2
CCCn1c(=O)c(C(=O)NCCc2ccc(OC)cc2)c(O)c2ccccc21	-5%	-0.3%	-4%	·
FC(F)(F)c1ccc(Sc2nnc(-c3cccs3)n2CC2CCCO2)nc1 (stereo unspecified)	26%	-0.8%	-7%	-3
Cc1ccnc(NS(=O)(=O)c2ccc(N3C(=O)C4CCCCC4C3=O)cc2)n1 (stereo unspecified)	-11%	2.0%	8%	·
COc1ccccc1NC(NC(=O)c1ccco1)C(=O)c1ccccc1 (stereo unspecified)	1%	-1.7%	-16%	-1
COc1ccccc1C(C)NC(=O)c1cc(=O)[nH]c2ccccc12 (stereo unspecified)	-1%	-0.4%	7%	·
Cc1nn(C)cc1CN1CCCC(C(=O)c2ccc(-c3ccccc3)c(F)c2)C1 (stereo unspecified)	4%	-2.4%	5%	2
N#C/C(=C\c1cn(CCOc2ccccc2)c2ccccc12)C(=O)NCc1cccs1	?	?	-10%	-4
O=C1CC(NS(=O)(=O)c2cc(F)ccc2F)CN1c1ccc2c(c1)OCCO2 (stereo unspecified)	16%	-0.4%	·	·
COc1ccc(OC)c(-c2csc(NC(=O)Cc3ccccc3OC)n2)c1	31%	0.7%	-40%	·
CCCCNCCS(=O)(=O)NCc1ccc(OC)cc1	-5%	-3.4%	·	·
CN(C)CCN(C(=O)/C=C/c1cccs1)c1nc2ccc(F)cc2s1	13%	-2.6%	-7%	12
CN(CC(=O)Nc1ccc(Cl)c(C(F)(F)F)c1)C(=O)CC1Sc2ccccc2NC1=O (stereo unspecified)	6%	-2.2%	15%	·
COc1ccc(C2(CNC(=O)C(=O)Nc3ccc(C)cc3)CCOCC2)cc1	0%	0.5%	-18%	1
Cc1ccc(CN(C(=O)c2cc(=O)c3cc(C)cc(C)c3o2)C2CCS(=O)(=O)C2)cc1 (stereo unspecified)	-16%	-2.3%	-29%	-1
Cc1ccc(Cl)cc1NS(=O)(=O)c1cc2[nH]c(=O)c(=O)[nH]c2cc1C	12%	0.7%	2%	·
CCN(CC)S(=O)(=O)c1cc(C(=O)OC)ccc1Cl	-1%	-0.2%	-10%	-7
